Screens: PubChem BioAssay, ICCB-Longwood Screening Facility, Harvard Medical School
Ba CapD inh = CapD enzyme inhibition. z-score (test concentration not listed). AID 492967. purified CapD enzyme, fluorescence intensity read-out; active compounds read low; some hits fall short of the stated cut. 140,000 compounds, 0.23% hits;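 active = z-score under -4 in either of two replicates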;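 also: stock transfer was 100 nL into about 40 µL; score is relative to mean and spread of the plate; one replicate is shown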
AID504770 = growth inhibitors of E. coli YBA685 in a screen for V. cholerae RctB (chromosome II replication) inhibitors; z-score (concentration not given with the values); 130,000 compounds, 0.27% hits; E. coli YBA685 rctB-dependent plasmid, OD600 growth, 3 h; active compounds read low;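 active = z-score under -2 on both plates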;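 also: wells of about 30 µL received 100 nL stock; score is relative to mean and SD of the test wells; the first replicate is given; strong numbers were not always called active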
* = called active by the depositor; x = no result given; & = joins results of further samples.

Sample of the layout (4 entries):
SMILES	Ba CapD inh	AID504770
CC(C)C(CC(=O)O)c1ccco1 (centres undefined)	x	-1.1
COc1cccc(CC(=O)Nc2nnc(SCc3ccc(C#N)cc3)s2)c1	x	0.1
CCOC(=O)C1=C(C)N=c2s/c(=C\c3ccccc3Cl)c(=O)n2C1c1ccc(OC(C)=O)c(OC)c1 (centres undefined)	-0.29	x
O=C(CCC(=O)N(C1CC1)C1CCN(Cc2ccccc2)CC1)NC1CCCCC1	0.055	x

All compounds of this part, repeating the preview:
SMILES	Ba CapD inh	AID504770
CC(C)C(CC(=O)O)c1ccco1 (centres undefined)	x	-1.1
COc1cccc(CC(=O)Nc2nnc(SCc3ccc(C#N)cc3)s2)c1	x	0.1
CCOC(=O)C1=C(C)N=c2s/c(=C\c3ccccc3Cl)c(=O)n2C1c1ccc(OC(C)=O)c(OC)c1 (centres undefined)	-0.29	x
O=C(CCC(=O)N(C1CC1)C1CCN(Cc2ccccc2)CC1)NC1CCCCC1	0.055	x
COc1ccc(-n2nc(C(=O)NCC(=O)Nc3ccccn3)c3ccccc3c2=O)cc1	0.57	-0.45
COc1ccc(Cl)cc1NC(=O)CN1CCCC(c2nnc(SC)n2C(C)C)C1 (centres undefined)	x	-0.55
O=C(CN1C(=O)CCC1=O)Nc1nc(-c2ccccc2)cs1	-0.85	-0.95
OC(CN1CCN(Cc2ccccc2)CC1)Cn1c2ccccc2c2ccccc21 (centres undefined)	16	x
CC1(C)C2=CC3(C)N(CC(=O)N2c2ccccc21)c1ccccc1C3(C)C (centres undefined)	0.21	0.6
Cc1nnc2c3c(-c4ccccc4)csc3ncn12	0.2&0.74	-0.9&-0.85
O=C(NCCn1cccc1)c1cccc2ccccc12	0.085	-1.1
COC(=O)c1c(NC(=O)CSc2nncs2)sc2c1CCCCC2	x	-0.5
CC1C2CC(=O)N(C)C1(C)Oc1ccccc12 (centres undefined)	x	-0.5
NC(=O)C1CCN(C(=O)CC(c2ccccc2)c2ccccc2)CC1	x	-0.35
CC(=O)Nc1ccc(Nc2ncnc3c2cnn3-c2ccc(Cl)cc2)cc1	-0.26	x
Cc1ccccc1NC(=O)NC(C)(C)CC(C)(C)C	-0.8	-0.35
CC1=C(C(=O)OCCc2ccccc2)C(c2coc3ccccc3c2=O)C2=C(CCCC2=O)N1 (centres undefined)	0.03	x
Nc1c(C(=O)N2CCOCC2)nnn1-c1ccccc1	x	-1
O=C(Nc1nnc(Sc2ccnc3cc(Cl)ccc23)s1)c1cccs1	0.31	-1.1
CN1CCN(C(=O)c2n[nH]c(=O)c3ccccc23)CC1	x	-0.1
O=c1cc(CSc2nc(NC3CCCCC3)c3ccccc3n2)nc2ccc(Cl)cn12	1.4	x
Cc1cc(=O)[nH]c(N/N=C/CCc2ccccc2)n1	0.47	-0.65
COc1cc(/C=C2\N=C(c3cncc(Br)c3)OC2=O)cc(OC)c1OC	0.57	x
CCOCCOC(=O)C1=C(C)NC2=C(C(=O)CC(c3cccs3)C2)C1c1coc2ccccc2c1=O (centres undefined)	1.2	x
CCN(CC)CCNc1nc2c(c(=O)n(C)c(=O)n2C)n1CC(O)COc1ccc(OC)cc1 (centres undefined)	-0.06	x
COc1cc(/C=C(\C#N)c2ccc(C)cc2)cc(OC)c1OC	17	0.5
COC(=O)c1conc1C(C)(C)C	0.6	-0.8
COc1ccc(-c2csc3ncnc(N4CCN(c5ccccc5OC)CC4)c23)cc1	0.69	x
COc1cccc2cc(-c3nc(-c4ccc(Cl)cc4Cl)cs3)c(=O)oc12	-0.48	x
O=C(O)c1cccc(/C=N/NC(=O)C2CC2c2ccccc2)c1 (centres undefined)	0.045	x

Full records, quoted from the list:
O=C(CN1C(=O)CCC1=O)Nc1nc(-c2ccccc2)cs1 as listed: Ba CapD inh = -0.85; AID504770 = -0.95
CC1=C(C(=O)OCCc2ccccc2)C(c2coc3ccccc3c2=O)C2=C(CCCC2=O)N1 (centres undefined) as listed: Ba CapD inh = 0.03; AID504770 = x
Cc1ccccc1NC(=O)NC(C)(C)CC(C)(C)C as listed: Ba CapD inh = -0.8; AID504770 = -0.35

(continued)
SMILES	Ba CapD inh	AID504770
N/C(=C\C(=O)c1cccs1)C(F)(F)F	-4.1	-0.65
Cc1cccc(C(=O)NC(C)(C)CC(C)(C)C)c1	-0.11	-0.95
COc1ccc(C(=O)NCc2ccccc2)cc1OC	0.24	-0.55
S=c1[nH]nc(CSCCOc2ccccc2)o1	0.2	2.1
CC(C)Cc1cc(-c2cccc(Br)c2)c(C#N)c(N)n1	35	0.7
O=C(NCc1ccncc1)OCCOc1ccc2ccccc2c1	-0.32	x
N#Cc1c(C(F)(F)F)cc(-c2ccc(Cl)cc2)nc1Sc1ccccc1	1.7	x
CCC(C(=O)O)n1cnc2ccccc21 (centres undefined)	0.07	-0.55
CCOc1ccc(/C=N/NC(=S)NCCCOC)cc1	-2.5	x
CCCCn1c(C)c(C(=O)OCC)c2cc(OC(=O)c3cccc(Cl)c3)c3ccccc3c21	-1	x
N#CC1(c2ccc(Cl)cc2)CCCCC1	0.13	-0.6
O=C(CNc1cc(=O)[nH]c(=S)[nH]1)NCc1ccco1	x	-0.1
CN(C)S(=O)(=O)c1cccc(C(=O)N=C=S)c1	x	-0.25
c1ccc(Cn2c3c(c4ccccc42)CCOc2ccccc2-3)cc1	-0.62	-0.45
CCc1cc2cc(C)cc(C)c2nc1Cl	x	-0.55
COc1cc(N)ncn1	x	2.1
COc1ccccc1C(O)(c1ccc(O)cc1)C(CN1CCOCC1)c1ccccc1 (centres undefined)	-0.57	-0.95
CC(C)(C)c1ccc(-c2nc3ccccc3c(=O)o2)cc1	0.84	-0.15
c1ccc(-c2cc3ccccc3[nH]2)cc1	38	-0.25
COC(=O)Cc1c(OC(C)=O)[nH]c(C)c1C(=O)OC	0.035	x
O=C(c1ccccc1)c1cnc(Nc2nc3ccccc3o2)nc1-c1ccccc1	-0.22	1.4
O=C(C1CCCCC1)N1CCCCCCC1	0.035	0
CCOC(=O)N1CCC(NC(=O)c2cc3cc4cc(OC)ccc4nc3o2)CC1	0.48	0.8
CCOC(=O)c1ccc(NC(=O)NC(C)c2ccc3c(c2)OCO3)cc1 (centres undefined)	-0.57	-0.45
Nc1nccc(C2=NOC(CNc3ncc(C(F)(F)F)cc3Cl)C2)n1 (centres undefined)	9.7	x
O=C(c1cccs1)N(Cc1cccnc1)Cc1ccc(Cl)cc1Cl	0.72	0.05
Cc1ccc(/C=C2/SC(=S)N(c3ccc(C(=O)O)c(O)c3)C2=O)o1	x	-0.1
CCN1CCCC1CNC(=O)c1sc2ncn(CC(=O)Nc3cccc(C(F)(F)F)c3)c(=O)c2c1C (centres undefined)	-0.065	x
Nc1ccc(NC(=O)CCN2CCOCC2)cc1	0.45	0.3
C=CCOC(=O)C1=C(C)NC(SCC(=O)Nc2cccc(C)c2C)=C(C#N)C1c1ccco1 (centres undefined)	14	x
Cc1ccccc1-n1cnnc1SCC(=O)c1cc(C)n(C2CCS(=O)(=O)C2)c1C (centres undefined)	x	1
CNCC(=O)NC(C)(C)C	x	1.2
COc1ccc2c(=O)c(NC(=O)Nc3ccc(F)cc3F)c[nH]c2c1	x	0.3
CC(C)(C)N1C(=O)NC(=O)/C(=C/c2ccccc2Cl)C1=O	0.29	-0.75
NC(=O)C(c1ccc(Cl)cc1Cl)c1ncc(C(F)(F)F)cc1Cl (centres undefined)	0.03	x
COc1ccc(NC(=O)N2CC(C)Sc3ccccc32)cc1 (centres undefined)	-0.55	1
COC(=O)C(Cc1c[nH]c2ccccc12)NC(=O)c1cccs1 (centres undefined)	-0.3	x
Nc1ccc(C(F)(F)F)c(C(F)(F)F)c1	0.79	0.45
COc1cc(C2NC(=O)N(C)C(C)=C2C(=O)OCc2ccccc2)cc(Br)c1O (centres undefined)	-0.43	x
Cc1cc(C)c2c(-n3cccc3)c(C(=O)NCCc3ccc(S(N)(=O)=O)cc3)sc2n1	0.075	-0.05
COc1cc(Cl)c(S(=O)(=O)NCc2ccccn2)cc1Cl	-0.45	2.4
Cc1cc2c(=O)[nH][nH]c(=S)n2n1	x	-0.55
Cn1cccc1Cc1nnc(SCC(=O)Nc2ccccc2C(F)(F)F)n1CCc1ccccc1	-1.2	-0.35
COc1ccc(N2CCN(C(=S)Nc3ccccc3)CC2)cc1	-0.28	0.3
COC(=O)c1ccc(S(N)(=O)=O)n1C	-1	3
O=C1CCN(c2cnn(-c3ccc(Cl)cc3Cl)c(=O)c2Cl)CC1	-0.38	x
CCOC(=O)N1CCN(S(=O)(=O)c2ccc(F)c(C(=O)Nc3ccc(Cl)c(Cl)c3)c2)CC1	-0.06	x
Cc1noc(C)c1COC(=O)[C@H](C)N=C1NS(=O)(=O)c2ccccc21	x	0.5
Cc1ccc(C)c(OCc2nnc(SC/C(O)=C(\C#N)c3nc4ccccc4[nH]3)o2)c1	x	-0.05
O=C(O)c1ccc(Cn2cccn2)cc1	x	-1
CCS(=O)(=O)NCCc1csc(-c2ccccc2)n1	0.2	-0.2
CC(=O)N1C(=O)NC2NC(=O)N(C(C)=O)C21 (centres undefined)	0.43	-0.4
CC(C)(C)N1C(c2ccccc2)=NN(c2ccccc2)C1c1cccs1 (centres undefined)	-0.28	x
CCC(C)NC(=O)Cn1c(=O)n(Cc2ccccc2Cl)c(=O)c2cc(OC)c(OC)cc21 (centres undefined)	-0.035	-0.9
CN1CCN(C(=S)Nc2ccc(S(N)(=O)=O)cc2)CC1	0.015	0.05
CC1=NN(c2ccc(C)c(C)c2)C(=O)C12C(c1ccc(Cl)cc1Cl)C21C(=O)N(c2ccc(C)c(C)c2)N=C1C (centres undefined)	-0.13	x
COc1ccccc1-c1nc(-c2ccccc2)c(-c2ccccc2)[nH]1	15	x
Cc1cc(NC(=S)N(C)C)ccc1Br	-0.8	1.9
COC(=O)c1c(NC(=S)n2cc(C)cn2)sc2c1CCC(C)C2 (centres undefined)	-0.84	1.4
Cc1ccc2c(c1)sc1nc(=O)n(-c3ccccc3)c(=O)n12	0.63	0.05

Going on with the list:
SMILES	Ba CapD inh	AID504770
Cc1ccc(SCC(=O)Nc2ccc(Br)cc2)cc1	-1.1	x
COc1ccc(S(=O)(=O)NCc2cn3ccccc3n2)cc1F	-2.8	-0.4
O=C(CCSc1ccc(Cl)cc1)Nc1ccccc1	x	-0.1
CN(C)/C=N/c1nnc(Sc2ccnc3cc(Cl)ccc23)s1	-2.3	-0.55
COc1cc2c(C(=O)Nc3ccc(F)cc3)cn(CC(C)C)c(=O)c2cc1OC	-0.4	-1.1
Cc1nc2cc(-c3ccccc3)nn2c(C)c1CCC(=O)N1CCC2(CC1)OCCO2	4.7	1.1
O=S(=O)(NCc1ccccc1)N1CCCCC1	-0.055	1.1
CCOc1ccc(CSc2ncn[nH]2)cc1	-0.05	-0.55
O=C(C1CC1)N(C1CC1)C1CCN(Cc2ccccc2)CC1	-0.56	x
CCOC(=O)c1c(C)oc2c1c(C=NC1CCCC1)c(O)c1ccccc12	-0.74	1.7
CN(CC(=O)NC1CCCCC1)S(=O)(=O)c1ccccc1	-0.29	-0.8
N#CCc1ccc(Oc2c(Cl)cncc2Cl)cc1	0.55	0.8
Cc1ccc(SC(C)C(=O)Nc2ccc3c(c2)OCO3)cc1 (centres undefined)	-0.76	-0.85
CCOC(=O)c1c(C)cccc1NC(=O)c1cccs1	-1.7*	-0.35
COC(=O)c1ccc(NC(=S)N2CCOCC2)cc1	-0.52	0.65
CCN(C(=O)c1cc2cc(OC)ccc2oc1=O)c1cccc(C)c1	1.8	0.35
c1ccc(CSc2nnc(-c3c[nH]c4ccccc34)o2)cc1	-1	-0.1
CCOc1ccc(-c2cc(CCCC(=O)Nc3ccc(F)cc3F)no2)cc1	0.38	-0.8
Cc1ccc(-n2c(C)cc(/C=C(\C#N)C(=O)NCC3CCCO3)c2C)cc1 (centres undefined)	1.2	-0.75
CC1CCC(NC(=O)C(Cc2ccccc2)NC(=O)C2CCCCC2)CC1 (centres undefined)	-0.22	-0.75
O=S(=O)(CCSc1cccs1)c1ccc(F)cc1	-0.45	-0.6
Cc1ccc(CCOC(=O)N2CCC(O)C2)cc1 (centres undefined)	-0.29	x
CCOC(=O)C1=CN(Cc2ccc(Cl)cc2)C=C(C(=O)OCC)C1c1cc(OC)c(OC)cc1OC	10	x
Nc1ccc(SC(F)(F)F)cc1	0.31	0
CSc1ccc(CN2C(=O)CCC2(C)C(=O)N2CCCC2)cc1 (centres undefined)	0.21	0.85
CCCCCCC(=O)Nc1cccc(C(=O)N/N=C/c2ccc(/C=C/C(=O)O)cc2)c1	2.7	x
COc1ccc(CC(=O)NC(c2ccccc2)c2ccccc2)cc1	-0.35	0.05
CCOC(=O)c1csc(-c2ccc3c(c2)CCO3)n1	4.2	-0.85
COc1ccccc1C(=O)c1nc2ccccc2n1C	-2.6	0.95
COC(=O)c1cc(COC(=O)c2cc(CN3C(=O)c4ccccc4C3=O)ccc2OC)oc1C	x	0.7

Copied from above (2 entries):
SMILES	Ba CapD inh	AID504770
COc1ccccc1C(=O)c1nc2ccccc2n1C	-2.6	0.95
COC(=O)c1cc(COC(=O)c2cc(CN3C(=O)c4ccccc4C3=O)ccc2OC)oc1C	x	0.7

(continued)
SMILES	Ba CapD inh	AID504770
Cc1cn(-c2ncnc3scc(-c4ccccc4)c23)nc1C(F)(F)F	4.8	-0.15
Cc1cccc(N2C(=O)C3C(C(=O)NC4CC4)C4C=CC3(O4)C2C(=O)NC2CCCC2)c1 (centres undefined)	x	-0.7
Cc1cccc(NC(=O)CSc2nnc(-c3ccccc3)c(-c3ccccc3)n2)c1C	-0.53	x
O=C(O)CCCc1nnc2n3nc(-c4ccccc4)nc3c3ccccc3n12	1.1	0.15

Copied from the list.
Ba CapD inh, Cc1cccc(NC(=O)CSc2nnc(-c3ccccc3)c(-c3ccccc3)n2)c1C reads -0.53
Ba CapD inh, O=C(O)CCCc1nnc2n3nc(-c4ccccc4)nc3c3ccccc3n12 reads 1.1
